HCMV UL50-53 inh – cytomegalovirus nuclear egress complex inhibition. inhibition, % (concentration not given with the values). HTRF UL50-UL53 interaction, normalized percent inhibition. actives 0.15% (n = 190,000). AID 1918969;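 active = both replicates at 50% or more, plus weaker picks with an unusually low signal ratio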;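 also: stock transfer was 100 nL into about 20 µL; 0% = negative control wells and 100% = wells with untagged competitor protein; inactives centre near -12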
Sa growth inh – inhibitors of Staphylococcus aureus growth at 42 °C; S. aureus RN4220 growth, OD600, 20 h; active compounds read low; relative growth, % (concentration not given with the values); actives 0.53% (n = 170,000);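 active = growth at 42 °C up to 50% and 20 or more points under that at 30 °C, or under 10% at both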;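 also: 300 nL library stock went into each well; scaled to the means of positive and negative controls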
GIV-Gai inh – inhibitors of GIV GBA-motif binding to rat Galpha-i3; P08753; Galpha-i3/FITC-GIV peptide fluorescence polarization, 90 min; active compounds read low; scaled: aluminum fluoride 0%, vehicle 100%; percent of control (FP), % (no concentration beside the values); actives 0.42% (n = 210,000);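 active = replicate mean at 85% of control or lower, very high polarization wells dropped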;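 also: wells of about 15 µL received 100 nL stock; the first replicate is given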
Target sequence (P08753 whole entry, looked up): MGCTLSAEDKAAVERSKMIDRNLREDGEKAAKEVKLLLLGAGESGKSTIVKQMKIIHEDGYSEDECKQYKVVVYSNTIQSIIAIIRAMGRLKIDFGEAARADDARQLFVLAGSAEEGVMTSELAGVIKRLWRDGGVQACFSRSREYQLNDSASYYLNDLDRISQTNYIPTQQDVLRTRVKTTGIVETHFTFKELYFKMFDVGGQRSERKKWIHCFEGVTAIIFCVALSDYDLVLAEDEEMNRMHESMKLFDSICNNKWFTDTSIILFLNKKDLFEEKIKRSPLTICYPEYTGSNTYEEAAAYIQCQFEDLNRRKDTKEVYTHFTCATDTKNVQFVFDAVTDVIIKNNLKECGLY
Sa growth inh second temp – recorded beside Sa growth inh, whose call it bears; relative growth, %; measured here: growth at 30 °C;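 optical density after 20 h as mean of two plates; 100% = untreated growth and lower means inhibition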
An asterisk follows results filed as active; nt = no result given.

The first 15 records, ahead of the listing:
SMILES	HCMV UL50-53 inh	Sa growth inh	Sa growth inh second temp	GIV-Gai inh
Cc1ccc2c(N)c(C(=O)N3c4ccccc4Sc4ccccc43)sc2n1	-16	nt	nt	95
CC(=O)N1CCc2cc(S(=O)(=O)NC(CC(C)C)C(=O)Nc3ccc(C(C)C)cc3)ccc21 (stereo not given)	-22	108	90	104
CC1(C(=O)NC2CCCCC2)Cn2c(cc3occc32)C(=O)N1CCN1CCCC1 (stereo not given)	-9	nt	nt	103
CC(=O)Nc1ccccc1-c1nc2ccccc2n(CC(=O)Nc2cccc(C)c2C)c1=O	12	101	95	104
Cc1ccc2[nH]c(=O)c3cc(C(=O)N(C)c4ccccc4)sc3c2c1	1	100	85	102
CC1CCCC(C)N1C(=O)COC(=O)c1ccc(C#N)cc1 (stereo not given)	-20	85	87	nt
CS(=O)(=O)Nc1ccc(N2CCN(c3ccccc3)CC2)c(C(=O)O)c1	-28	nt	nt	105
COc1ccc(OC)c(NC(=O)c2cc(S(=O)(=O)N3CCCC(C)C3)cn2C)c1 (stereo not given)	-18	nt	nt	107
O=C1OC(Oc2cccc3cccnc23)(c2ccccc2)c2ccccc21 (stereo not given)	nt	29	2	99
O=C(CN(C1CCCCC1)S(=O)(=O)c1ccccc1)NCc1ccco1	18	85	73	101
COc1cccc(N2CCN(S(=O)(=O)c3cn(C)c(C)n3)CC2)c1	nt	99	90	95
O=C(NC1CCCCC1)c1ccc(COCC(F)(F)F)o1	nt	111	88	104
CCN(CC)C(=O)Cn1c(=O)n(-c2ccccc2)c(=O)n1CC(=O)N(CC)CC	-3	124	93	97
CC(C)c1cccc(C(C)C)c1OCCOCCN1CCNCC1	-7	104	101	98
CC(C)(C)C(=O)c1sc2nc3c(c(-c4cccs4)c2c1N)CCC3	-10	91	91	nt

Main list (from the top)
SMILES	HCMV UL50-53 inh	Sa growth inh	Sa growth inh second temp	GIV-Gai inh
Cc1ccc2c(N)c(C(=O)N3c4ccccc4Sc4ccccc43)sc2n1	-16	nt	nt	95
CC(=O)N1CCc2cc(S(=O)(=O)NC(CC(C)C)C(=O)Nc3ccc(C(C)C)cc3)ccc21 (stereo not given)	-22	108	90	104
CC1(C(=O)NC2CCCCC2)Cn2c(cc3occc32)C(=O)N1CCN1CCCC1 (stereo not given)	-9	nt	nt	103
CC(=O)Nc1ccccc1-c1nc2ccccc2n(CC(=O)Nc2cccc(C)c2C)c1=O	12	101	95	104
Cc1ccc2[nH]c(=O)c3cc(C(=O)N(C)c4ccccc4)sc3c2c1	1	100	85	102
CC1CCCC(C)N1C(=O)COC(=O)c1ccc(C#N)cc1 (stereo not given)	-20	85	87	nt
CS(=O)(=O)Nc1ccc(N2CCN(c3ccccc3)CC2)c(C(=O)O)c1	-28	nt	nt	105
COc1ccc(OC)c(NC(=O)c2cc(S(=O)(=O)N3CCCC(C)C3)cn2C)c1 (stereo not given)	-18	nt	nt	107
O=C1OC(Oc2cccc3cccnc23)(c2ccccc2)c2ccccc21 (stereo not given)	nt	29	2	99
O=C(CN(C1CCCCC1)S(=O)(=O)c1ccccc1)NCc1ccco1	18	85	73	101
COc1cccc(N2CCN(S(=O)(=O)c3cn(C)c(C)n3)CC2)c1	nt	99	90	95
O=C(NC1CCCCC1)c1ccc(COCC(F)(F)F)o1	nt	111	88	104
CCN(CC)C(=O)Cn1c(=O)n(-c2ccccc2)c(=O)n1CC(=O)N(CC)CC	-3	124	93	97
CC(C)c1cccc(C(C)C)c1OCCOCCN1CCNCC1	-7	104	101	98
CC(C)(C)C(=O)c1sc2nc3c(c(-c4cccs4)c2c1N)CCC3	-10	91	91	nt
CN(C)C(=O)c1ccc(N)cc1	-4	78	91	nt
O=C(c1ccc(-n2cccn2)cc1)N1CCc2ccccc2C1	-3	120	86	103
CCOc1cc(C(=O)Nc2cc3c(cc2N2CCCC2)n(C)c(=O)c(=O)n3C)cc(OCC)c1OCC	-25	100	85	112
COc1ccc2c(c1)CCCN2C(N)=O	-3	100	95	109
Cc1cccc(C(=O)Nc2cc(-c3ccccc3)no2)c1	-3	102	100	102
Cn1ncc(C(=O)O)c1C(F)(F)F	2	94	94	95
CCN(Cc1ccc(/C=C2\C(=O)Nc3ccccc32)o1)S(C)(=O)=O	-4	87	89	105
CC1Cc2ccccc2N1C(=O)c1cc2ccccc2oc1=O (stereo not given)	15	103	97	nt
CC(C)(CNC(=O)/C=C/c1ccc(Br)cc1)N1CCOCC1	-50	75	83	nt
C/C(=N\NC(=O)CSc1nnc(SCc2ccccc2)s1)c1ccco1	-30	86	86	98
Cc1cccc(C)c1OCC(=O)Nc1nonc1-c1ccc(Br)cc1	-25	93	82	105
CCCc1cc(C(=O)Nc2c(C)nn(Cc3ccc(Cl)c(Cl)c3)c2C)no1	-24	90	89	106
CCOC(=O)CC1C(=O)NCCN1CC1CCCCC1 (stereo not given)	7	nt	nt	101
Cc1c(C(=O)OCc2ccc(Cl)cc2)nnn1-c1ccc(Br)cc1	18	nt	nt	101
CN(Cc1ccccc1)C(=O)CN(c1cccc(F)c1)S(C)(=O)=O	-13	120	97	105
Cc1cc2c(c(=O)[nH]1)C(c1ccc(C(C)C)cc1)C(C#N)=C(N)O2 (stereo not given)	nt	130	87	98
COC(=O)C(NC(=O)c1ccc(S(=O)(=O)N2CCOCC2)cc1)C(C)C (stereo not given)	nt	100	111	102
Cc1ccc(C)c(N2CCN(S(=O)(=O)c3ccc4nc(-c5ccccc5)[nH]c4c3)CC2)c1	nt	97	81	106
CCOc1ccccc1NC(=O)c1ccc2oc(=O)c(S(=O)(=O)c3ccc(F)cc3)cc2c1	-32	115	89	99
Cc1ccc(N2CC(NC(=O)c3ccc(S(=O)(=O)N4CCCCC4)cc3)CC2=O)cc1 (stereo not given)	nt	107	82	104
CCOC(=O)CN1C(=O)S/C(=C/c2cn(CC(N)=O)c3ccccc23)C1=O	-32	106	81	103
O=C(CCCO)Nc1ccc2c(c1)OCCO2	-8	104	97	100
COCCNC(=O)Nc1ccc(F)cc1	-6	117	97	96
CCS(=O)(=O)Nc1cc2c3c(n(S(=O)(=O)CC)c2cc1C)CCC3	-6	122	95	102
CCCOc1ccc(C2c3c(-c4c(C)cc(C)cc4O)n[nH]c3C(=O)N2CCO)cc1 (stereo not given)	-1	106	84	98
CCCSc1nc2c(c(=O)[nH]1)C(c1ccccc1)C(C(=O)OC)=C(C)N2 (stereo not given)	-30	nt	nt	99
Cc1cc(C)nc(Nc2ccc(C(=O)OCC(C)C)cc2)n1	nt	109	102	102
Cc1nc2ccccc2nc1Oc1ccc(Cl)c(F)c1	-10	nt	nt	108
Cc1cc(C(=O)CN2c3cccc4cccc(c34)S2(=O)=O)c(C)n1C	-17	72	86	nt
C/C(=N\O)c1csc(-c2snnc2C)n1	-42	115	9	102
O=c1[nH]cnc2c1cnn2-c1ccc(C(F)(F)F)cn1	-29	102	85	nt
CN(C)Cc1c(C#N)c2ccccc2n1C	-4	91	94	nt
CCN(C(=O)Cn1cnc2sccc2c1=O)C1CCS(=O)(=O)C1 (stereo not given)	-13	85	95	nt
COc1ccc(OC)c(S(=O)(=O)Nc2ccc3c(c2)n(C)c(=O)n3C)c1	0	95	84	112
CCOc1ccc(Oc2cc(NC(=O)c3cnn4c3NC(c3cccs3)CC4C(F)(F)F)cc([N+](=O)[O-])c2)cc1 (stereo not given)	-3	nt	nt	91
COc1ccc(OCC(O)CNS(=O)(=O)c2ccc(-c3ccccn3)s2)cc1 (stereo not given)	-18	96	86	104
Cc1cccc(OCC(=O)Nc2ccc(S(N)(=O)=O)cc2)c1C	11	87	84	91
CN(C)c1nc(-c2ccccc2O)nc2ccccc12	10	101	86	112
O=C(Cn1c(-c2cccs2)cc2ccccc21)NC1CCCCC1	nt	107	96	101
CC(=O)Nc1c(OC(C)=O)ccc2c(C)cc(=O)oc12	nt	94	98	101
O=c1[nH]cc(S(=O)(=O)N2CCc3ccccc3C2)c(=O)[nH]1	-18	nt	nt	106
CC(C)c1nc2ccc(N)cc2s1	16	72	92	98
Cc1cc(C)cc(NC(=O)c2oc3c(c2C)-c2[nH]ncc2CC3)c1	nt	44	29	110
Cc1nn(C)c(C)c1/C=N/NS(=O)(=O)c1ccccc1	-12	90	85	nt
CC(=O)Nc1ccc(NS(=O)(=O)c2c(C(=O)N3CCC(C)CC3)c(C)n(C)c2C)cc1	nt	85	89	100
The list continues:
SMILES	HCMV UL50-53 inh	Sa growth inh	Sa growth inh second temp	GIV-Gai inh
COc1ccc(C2C(=O)N(C3CCCCCC3)CC(=O)N2CCc2ccc(Cl)cc2)cc1OC (stereo not given)	nt	104	83	105
FC1(F)C2C3C=CC(O3)C2C1(F)F (stereo not given)	-28	105	88	99
Cc1cc(C)cc(NC(=O)CSc2c(C(C)C)cnc3c2c(=O)n(C)c(=O)n3C)c1	nt	76	88	104
CCCCC(CC)C(=O)Nc1ccc(S(=O)(=O)N2CCCCC2)cc1 (stereo not given)	5	111	91	102
COc1ccc2cc3cc(C(=O)NCCCN4CCC(C)CC4)oc3nc2c1	-124	85	84	98
CS(=O)(=O)CCOC(=O)c1cccc(Br)c1	-3	119	100	nt
O=C(OCn1nnc2ccccc2c1=O)c1ccccc1	-28	89	66	103
CC1(C)C(=O)OC(c2ccco2)C(C)(C)C1=O (stereo not given)	-10	93	94	nt
O=C(NCc1ccc2[nH]c3c(c2c1)CCCC3)Nc1ccccc1	nt	103	89	97
COc1ccc2c(CC(=O)Nc3ccc(C)cc3)coc2c1	-17	106	96	103
O=C(c1cnc(N2CCN(c3ncccn3)CC2)c2ccccc12)N1CCN(c2ccccn2)CC1	-43	nt	nt	104
c1ccc(C2COC(c3cccs3)=N2)cc1 (stereo not given)	3	62	92	107
COc1ccc(C2OCC(CN3CCCCC3)O2)cc1 (stereo not given)	-28	86	83	99
Cc1nn(Cc2c(F)cccc2Cl)c(=O)c2noc(C)c12	-20	nt	nt	106
CC(Sc1ncccn1)C(=O)N/N=C/c1ccccc1Cl (stereo not given)	-41	114	99	101
CC(C)Nc1nc(-c2c(F)cccc2Cl)cs1	-8	124	105	106
Cc1cc(NC(=O)c2ccc(OC(C)C)cc2)n(-c2ncnc3c2cnn3-c2ccccc2)n1	-21	nt	nt	100
CCn1nc(C)c(/C=N/NC(=O)c2cc(C3CC3)nc3ccccc23)c1C	-39	84	82	101
CCOC(=O)c1cc2ccsc2n1CC(=O)Nc1ccccc1C(=O)OC	-32	nt	nt	104
Cc1ccc(N/N=C2/CCc3ccccc3C2=O)cc1	-15	81	103	108
Cc1nn2c(nc1=O)SCC(c1ccccc1)=N2	nt	85	96	101
O=C(O)C1CCN(c2ncnc3ccccc23)CC1	-16	97	85	106
Cn1c(CNC(=O)C2CCCCC2)cc2cc(Cl)ccc21	-4	75	97	114
COC(CNC(=O)C1CCC(CNS(=O)(=O)c2ccccc2)CC1)OC (stereo not given)	nt	122	88	103
CCOP(=O)(CC)CC(=O)O (stereo not given)	-9	108	102	101
O=C(Nc1ccc2c(c1)OCCO2)c1ccc(S(=O)(=O)c2ccc(Cl)cc2)nc1	-24	nt	nt	100
CCCn1c(=O)[nH]c2cc(-c3noc(C(C)NS(=O)(=O)c4ccc(C)cc4)n3)ccc21 (stereo not given)	4	nt	nt	107
COc1cccc(N(Cc2ccc(C)cc2)C2=NC3CS(=O)(=O)CC3S2)c1 (stereo not given)	nt	93	99	97
O=C(c1cc2occc2c(Nc2ccc(F)cc2)n1)N1CCN(C2CCCCC2)CC1	-3	nt	nt	102
COc1cc(C(=O)N(CCC#N)C2CC(C)CC(C)(C)C2)cc(OC)c1OC (stereo not given)	-13	95	91	102
Cc1ccc2c(c1)sc1nc(-c3ccccc3Cl)cn12	-18	84	114	109
CCOc1ccc(NC(=O)CC2(CC(=O)O)CCCC2)cc1	-11	107	100	nt
Cc1cccn2c(=O)c3cc(C(=O)NC(C)(C)C)n(C)c3nc12	-30	109	110	106
COc1cccc(-c2cc(C(=O)Nc3cc(C)nn3-c3ccccc3)no2)c1	-35	93	85	102
CC1CCCCN1S(=O)(=O)c1ccc(NC(=O)c2cnccn2)cc1 (stereo not given)	-9	135	101	104
O=C1CS/C(=C/C(=O)c2cccs2)N1	-36	98	88	98
Cn1nc(CC(=O)Nc2ccc(-c3nnc4n3CCCCC4)cc2)c2ccccc2c1=O	3	101	98	nt
CCc1ccc(-n2c(C)nnc2SCc2nc(-c3ccc(OC)cc3)no2)cc1	-10	95	75	102
O=c1cc(CSc2ccccc2)c2ccc(O)cc2o1	-38	84	35	104
COc1ccc(NC(=O)c2nnc(SCC(=O)NCc3ccccc3)s2)cc1	-17	nt	nt	98
O=C(NC1CC1)c1ccc2c(=O)nc3c(-c4ccc(Cl)cc4)n[nH]n3c2c1	-15	nt	nt	105
CCn1c(CN(c2ccc(F)cc2)S(C)(=O)=O)nnc1SCC(=O)c1cc(C)n(CC)c1C	-23	nt	nt	106
O=C(COc1ccc(Oc2ccccc2)cc1)NCCCn1ccnc1	-47	100	89	nt
COc1ccc(CNC(=O)CCc2c(C)nn(-c3ccc(N4CCOCC4)nn3)c2C)c(OC)c1	nt	81	91	104
OC(c1ccccc1)c1ccc2ccccc2c1 (stereo not given)	-1	103	93	104
Cc1cccc(C(=O)NCC(=O)N(C)Cc2nc3ccccc3c(=O)[nH]2)c1	4	87	93	nt
CCC1(C)Cc2c(sc3nc(SCC(=O)OC)n(Cc4ccccc4)c(=O)c23)CO1 (stereo not given)	-17	nt	nt	105

Compound activity: PubChem BioAssay, ICCB-Longwood Screening Facility, Harvard Medical School
